# Source: PubChem BioAssay (several laboratories)
# MT1-MMP act inh – blockers of MT1-MMP proenzyme processing, primary screen, HT1080 RFP-PRO-GFP cells, GFP/RFP fluorescence; GFP/RFP ratio fluorescence, overnight; percent of plate control window, DMSO zero; AID 651647, 2012; 360,000 compounds, 0.061% hits; GFP/RFP ratio change, % at 20 µM; Matrix metalloproteinase-14 (Homo sapiens), P50281;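 active = GFP/RFP ratio change of at least 30% with cell ATP level not reduced by more than half and red fluorescence within 50% of control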; also: strong numbers were not always called active
#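 Test system: HT1080 RFP-PRO-GFP cells; Benchmarks: DMSO and RFP-L50D-GFP cell wells; Timing: cells overnight before dosing, compound overnight, 37 °C, 5% CO2; Compound: one 20 µM compound dose with 1% DMSO; Read-out: GFP/RFP fluorescence ratio.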
# UUG fidelity – modulators of yeast start codon fidelity, primary screen, whole organism, S. cerevisiae, single point, plate reader. activity score, % at 18.7 µM. S. cerevisiae UUG-firefly luciferase reporter, luminescence/redox ratio. 350,000 compounds, 0.13% hits;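 active = replicate mean at a twofold rise or more, about +100% in these data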;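 also: firefly luciferase made from a UUG start codon reports start codon fidelity; reporter light over untreated wells divided by growth signal over untreated wells; some hits fall short of that in this replicate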
# Env fusion inh – inhibitors of HIV-1 Env-driven cell-cell fusion, primary screen, HeLa-JRFL effector, CEM21 target cells, luciferase | inhibition, % at 12.3 µM | AID 651610, 2012 | 360,000 compounds, 1.1% hits;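 active = mean replicate inhibition score of at least 50 and every replicate individually at or above 50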;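 also: 0% = plate neutral controls and 100% = maraviroc near 300 nM; one replicate is shown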
# CSC inhib – cancer stem cell viability inhibitors, primary screen, luminescence; cancer stem cell-like cells viability; inhibition, % at 7.5 µM; 300,000 compounds, 1.1% hits; AID 2717, 2010;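 active = mean at 75% or more and at least half the replicates too; tested in HMLE shEcad cells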;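 also: 0% = median of negative and 100% = median of positive control wells; the first replicate is given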
# eIF4H FP inh – human eIF4H binding inhibitors, primary screen, translation initiation inhibitor project, biochemical, uHTS, fluorescence polarization; 290,000 compounds, 0.94% hits; eIF4H fluorescence polarization binding assay; inhibition, % at 35 µM; Eukaryotic translation initiation factor 4H (Homo sapiens), Q15056; AID 2012, 2009;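 active = 50% or more with normal probe brightness, or confirmed in later tests; about a fifth of its hits are not listed in these tables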;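 also: calls also rest on retests at 20 µM and on dose response follow-up; 0% = protein and probe with vehicle and 100% = probe without protein; strong numbers were not always called active; many hits fall short of the cut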
# PABP FP inh – PABP poly(A) RNA binding inhibitors, primary screen, biochemical, fluorescence polarization, uHTS; Polyadenylate-binding protein 1 (Homo sapiens), P11940; inhibition, % at 35 µM; 290,000 compounds, 1% hits; AID 2014, 2009;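 active = 50% or more with normal probe brightness, or confirmed in later tests; about a fifth of its hits are not listed in these tables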;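 also: calls also rest on retests at 20 µM and on dose response follow-up; controls were probe without protein and protein plus probe with vehicle; some compounds called inactive have numbers as strong as hits; many hits fall short of the cut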
# Rce1 inh – yeast Rce1p protease inhibitors, primary screen, biochemical, fluorescence, cell-free homogeneous | calls only | AID 2563, 2010 | yeast membranes, quenched prenylated peptide cleavage fluorescence | 290,000 compounds, 0.27% hits | CAAX prenyl protease 2 (Saccharomyces cerevisiae (strain ATCC 204508 / S288c)), Q03530;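 active = fall in fluorescence gain of 50% or more versus controls, with final raw signal at or below 3038400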;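 also: plate controls were neutral control wells for no effect and wells lacking membranes for full effect; tested at 10 µM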
# Target sequence (Q03530 whole entry, looked up): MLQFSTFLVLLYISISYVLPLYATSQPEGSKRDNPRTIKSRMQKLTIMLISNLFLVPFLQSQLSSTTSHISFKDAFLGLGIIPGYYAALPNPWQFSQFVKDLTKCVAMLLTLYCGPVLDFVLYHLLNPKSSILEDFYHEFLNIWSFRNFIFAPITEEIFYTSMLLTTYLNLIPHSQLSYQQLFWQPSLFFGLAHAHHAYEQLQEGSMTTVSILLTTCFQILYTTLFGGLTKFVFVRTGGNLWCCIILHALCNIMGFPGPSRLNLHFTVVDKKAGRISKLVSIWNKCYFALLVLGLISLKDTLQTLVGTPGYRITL
# MT1-MMP act inh RFP – also measured in MT1-MMP act inh; calls as there; RFP signal change, %; measured here: RFP expression control read;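 0 = vehicle wells; hits needed this value within 50% of zero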
# Active calls of the source: *; i = inactive; x = not tested or not shown; + = active, no number; & = joins results of further samples. A portion of the library; count on the stated rates, not on these rows.
no.	Molecule	MT1-MMP act inh	MT1-MMP act inh RFP	UUG fidelity	Env fusion inh	CSC inhib	eIF4H FP inh	PABP FP inh	Rce1 inh
1	CCOC(=O)c1ccc(NC(=O)NCc2cccnc2)cc1	7	4	-15	9	-3	-6	-3	i
2	COCCNC(=O)C(=O)Nc1ccc(Br)cc1	1	1	-15	x	0	-2	-7	i
3	COc1cccc(/C=C2\Oc3cc(OCC(=O)N4Cc5ccccc5C[C@H]4C(=O)O)ccc3C2=O)c1	1	1	3	x	3	26	36	i
4	Cn1ncc(Cl)c1C(=O)N1CCN(S(=O)(=O)c2ccc(F)cc2)CC1	-5	-3	3	-3	-7	-8	-6	i
5	Cc1nc(-c2ccccc2)ccc1C(=O)O	6	9	x	15	-3	2	-10	i
6	CCCc1nc(N2CCN(C)CC2)c2sc(=S)n(-c3ccccc3)c2n1	-10	-4	-15	35	0	-3	47	i
7	c1ccc(NCc2nc(-c3ccccc3)no2)cc1	-6	-2	-24	-72	3	-11	-9	i
8	COc1ccc(/C=C2\N=C(SC)N(C)C2=O)cc1	-6	-3	x	x	-7	-7	-8	i
9	Cc1ccccc1CNS(=O)(=O)c1c(C(=O)N2CCCCC2)c(C)n(C)c1C	2	3	8	-2	-6	-12	-12	i
10	N=c1n(CCN2CCCCC2)c2ccccc2n1CC(O)COc1ccccc1 (centres undefined)	3	0	x	x	8	-9	9	i
11	O=C(NNC1CC(=O)N(c2ccccc2)C1=O)c1cccnc1 (centres undefined)	0	3	x	-5	-6	4	-1	i
12	CC(C)c1ncc(S(=O)(=O)c2ccc(C(F)(F)F)cn2)c(N)n1	-1	-3	x	-3	-1	-2	-6	x
13	COc1ccc(C(=O)NC(=S)N2CCC(C)CC2)cc1Br	4	4	-24	-5	x	-3	-12	i
14	COc1ccc(C(=O)c2ccccc2Cl)cc1	-5	-2	-3	x	7	2	0	x
15	O=C(Cn1cc2c(n1)CCCC2)NCc1cccnc1	2	7	-11	-12	-24	-2	-2	i
16	COc1cccc(NC(=O)N2CCCc3ccccc32)c1	-1	4	x	14	4	1	0	x
17	COc1ccc(NC(=O)CSc2nnc(C)c(=O)n2N)cc1	-1	5	-16	4	-21	1	4	i
18	COc1ccc(C2=NN(C(=O)CSc3nc4ncc(Cl)cc4[nH]3)C(c3ccco3)C2)cc1 (centres undefined)	-12	-1	-19	21	-10	16	7	i
19	CCCCN1C(=O)C(CC(=O)NC2CCCCC2)CC(C(=O)N(C(C)C)C(C)C)=C1C (centres undefined)	5	3	0	-19	x	x	x	x
20	COCCNC(=O)c1ccc2c(c1)ncn2-c1ccc(F)c(F)c1	2	4	-20	x	13	-11	7	i
21	CN(CCO)c1cc(Sc2nc3ccccc3s2)c2nonc2c1[N+](=O)[O-]	3	2	-1	x	103*	-5	-37	i
22	Cc1ccccc1-n1nnnc1SC1CCOC1=O (centres undefined)	8	3	-7	-28	28	-8	2	x
23	COc1cccc(OCCNC(=O)c2cccc(OC)c2)c1	2	0	-33	x	-5	-3	-2	i
24	COc1ccc(NC(=O)CN2C(=O)COc3ccc(S(=O)(=O)N4CCCCC4)cc32)c(OC)c1	2	-2	-17	1	-12	x	x	i
25	CCOC(=O)N1CCN(c2nc(C)c3c(n2)CC(C)CC3=O)CC1 (centres undefined)	3	0	-3	3	-1	-2	3	i
26	O=C(Nc1ccccc1C(=O)Nc1ccccc1)c1ccccc1Br	-4	-2	-18	0	3	x	x	i
27	CC1CCN(CC(=O)Nc2ccc(Br)cc2[N+](=O)[O-])CC1	3	2	0	16	3	0	15	i
28	COc1cc(OC)cc(C(=O)N2CCN(S(C)(=O)=O)CC2)c1	-2	-1	-14	18	9	-12	1	i
29	COc1ccc(S(=O)(=O)Cc2ccc(C(=O)NCc3ccc(C)cc3)o2)cc1	1	-8	5	2	2	2	3	i
30	COc1ccc2nc(SC(C(=O)c3ccccc3)c3ccccc3)nc(C)c2c1 (centres undefined)	0	-1	-9	-2	24	-1	20	i

no.	Molecule	MT1-MMP act inh	MT1-MMP act inh RFP	UUG fidelity	Env fusion inh	CSC inhib	eIF4H FP inh	PABP FP inh	Rce1 inh
31	COc1ccc([N+](=O)[O-])cc1NC(=O)c1ccccc1SC	0	-1	-11	12	1	0	10	i
32	Cc1nc2c(-c3ccccc3)c(C)nn2c(SCC(N)=O)c1Cc1ccccc1	-1	4	-17	3	10	7	-6	i
33	COc1ccc(CCN2CC(C(=O)NCCc3ccccc3)CC2=O)cc1OC (centres undefined)	-2	-2	3	-5	-15	8	11	i
34	O=C(CN1C(=O)NC2(CCCC2)C1=O)N1CCN(S(=O)(=O)c2ccc(Cl)cc2)CC1	-2	1	x	-9	-8	-4	2	i
35	CC(=O)C(=Cc1cn(-c2ccccc2)nc1-c1ccccc1)C(C)=O	-6	-6	8	-6	16	-9	10	i
36	Cc1ccc(C)c(S(=O)(=O)N2CCN(C(=O)/C=C/c3ccco3)CC2)c1	-7	4	6	7	x	x	x	x
37	O=C(N/N=C/c1ccccn1)C(O)c1ccccc1 (centres undefined)	2	1	-19	-12	x	-9	-8	i
38	CCN(C(=O)Cn1cc(C(F)(F)F)ccc1=O)C1CCS(=O)(=O)C1 (centres undefined)	0	2	-17	-6	x	x	x	x
39	COc1ccc(CCNC(=O)CN2C(=O)c3ccccc3S2(=O)=O)cc1	4	0	-1	x	-12	-7	-4	i
40	CCc1nc2c(OCc3ccc(F)c(F)c3)cccn2c1N(C)C(=O)c1ccc(C)cc1	-4	-4	-6	-6	x	x	x	x
41	O=C(COc1ccc(Cl)cc1)Nc1ccccc1CO	7	1	-13	x	-2	-16	5	i
42	CCN(CC)C(=O)OCCc1cc2ccccc2c(=O)o1	-1	4	9	21	-11	x	x	x
43	CSc1nc(C)c(C(=O)C[n+]2ccccc2)cc1C#N	-1	2	-12	-11	-15	4	5	x
44	CCOc1ccccc1NC(=O)NC1Cc2ccccc2C1	-1	2	-21	x	2	1	-2	i
45	Cc1ccc2[nH]c(-c3ccccc3)c(CN3CCCC3)c(=O)c2c1	4	6	7	-8	-9	1	-2	i
46	CCCCN(C(=O)Nc1ccc(Cl)cc1)C1CCN(C(C)=O)CC1	-7	-2	7	-10	-1	3	-6	i
47	CC(=O)N1CCOc2ccc(S(=O)(=O)N3CCC(C(=O)Nc4ccc(C)cc4C)CC3)cc21	4	-1	13	3	-2	-3	-5	i
48	Cc1ccc(-n2nc(-c3cccs3)cc2C(=O)NCC2CCCO2)c(C)c1 (centres undefined)	4	-11	2	-87	15	32	1	i
49	NS(=O)(=O)c1ccc(CCNC(=O)CCc2ccccc2)cc1	0	2	-10	-11	-1	x	x	x
50	O=C(N/N=C/c1ccc(OC(=O)c2ccccc2)c([N+](=O)[O-])c1)c1ccc(O)cc1	3	1	-7	18	10	-3	6	i
51	CC1(C(=O)NCc2ccccc2)Cc2c(-c3ccc4c(c3)OCO4)ccnc2O1 (centres undefined)	14	-2	-1	-373	x	x	x	x
52	Cc1ccc(NC(=O)CN(C)C(=O)CCOc2ccccc2C)cc1	3	2	x	x	x	10	11	i
53	CCN(C=NC1=NN(c2cccc(C(F)(F)F)c2)CC1)CC	0	-2	-11	14	x	-1	2	i
54	CCC(CC)NC(=O)c1ccc(NS(=O)(=O)c2ccc3[nH]c(=O)[nH]c3c2)cc1	-3	4	-16	-19	2	4	-5	i
55	Cc1nn(C(C)C(=O)c2cccc(Cl)c2)c(C)c1[N+](=O)[O-] (centres undefined)	-2	-1	x	1	-6	-1	-3	i
56	O=C(NCN1C(=O)C2C3C=CC(C3)C2C1=O)Nc1nncs1 (centres undefined)	-7	-2	x	x	-5	10	-8	i
57	CCOC(=O)N1CCN(S(=O)(=O)c2ccc(OC)c(C(=O)N3CCCCC3)c2)CC1	-3	-3	2	10	4	-5	-8	i
58	CCNC(=O)CC1C(=O)N(c2ccc(F)cc2)C(=O)N1Cc1ccc(OC)cc1 (centres undefined)	2	-1	-20	x	x	-1	5	i
59	ONC(=Nc1cccc(C(F)(F)F)c1)c1cccnc1	1	-4	-9	3	-5	10	15	x
60	COc1ccc(/C=C\c2cc(OC)c(OC)cc2CC[N+](C)(C)C)cc1OC	0	1	-3&1	6	4	-5	28	+

no.	Molecule	MT1-MMP act inh	MT1-MMP act inh RFP	UUG fidelity	Env fusion inh	CSC inhib	eIF4H FP inh	PABP FP inh	Rce1 inh
61	COc1ccc(S(=O)(=O)N2CCCCC2)cc1NC(=S)Nc1cccc(Cl)c1C	5	4	x	28	-11	-3	-1	i
62	CC1CCC(C(C)C)C(OC(=O)CSc2nnc(N)s2)C1 (centres undefined)	-7	-4	-26	x	9	-6	-2	i
63	Cc1c(-c2ccc(F)cc2)[n+](=O)c2c(n1[O-])CCCCC2	0	0	x	-24	-7	6	-1	i
64	CCOC(=O)COc1ccc(S(=O)(=O)N2CCN(c3ccccc3)CC2)cc1	2	4	x	x	1	2	6	i
65	CCC(=O)N(c1ccc(C(=O)O)cc1)c1nc(-c2ccc(OC)cc2)c(C)s1	0	-3	x	24	-10	1	-9	i
66	CCCCCCCCOC(=O)C[N+](C)(C)C/C=C(/C)Cl	-7	-9	-3	1	31	-7	4	i
67	CC(C)(CO)Nc1nc(Cl)nc(NC2CCCCC2)n1	-3	0	x	7	-26	2	-6	i
68	COc1cc2[nH]c(=O)n(CCC(=O)N3CC=C(c4ccccc4)CC3)c(=O)c2cc1OC	5	4	x	-70	-4	-1	-10	x
69	COc1ccc(CNc2n[nH]c(NCc3ccc(OC)c(OC)c3)n2)cc1OC	5	-3	4	x	0	-8	-6	i
70	CC(C)n1cnc2c(Nc3cccc(Cl)c3)nc(NCCCO)nc21	-11	-12	5	-9	-7	-3	4	i
71	CC(O)Cn1c(N2CCCC2)nc2c1c(=O)n(C)c(=O)n2C (centres undefined)	-4	-2	-7	0	3	0	6	i
72	N/C(CSc1nc(-c2ccccc2)c(-c2ccccc2)o1)=N\O	-3	-4	-17	x	2	8	23	i
73	COc1ccccc1C(=O)NC(CCSC)C(=O)NC1CC1 (centres undefined)	0	1	-14	x	3	x	x	x
74	CCOc1ccc2c(c1)c(N=Nc1cccc(C(=O)O)c1)c(O)n2C	5	4	-4	-33	-6	-5	5	i
75	O=C(Nc1cccc(NC(=O)c2ccccc2Cl)c1)c1ccco1	-2	1	-9	-6	1	-5	-7	i
76	Cc1nc(NC(=O)C2CCCC2)sc1Cc1ccc2c(c1)OCO2	4	-2	-8	-19	24	-5	0	x
77	CC(=O)N1c2c(cc(Br)cc2S(=O)(=O)N2CCN(C(=O)c3ccco3)CC2)CC1C (centres undefined)	2	6	-11	-16	-8	7	12	i
78	Cc1cc2nc(C)n(CCCNC(=O)Nc3cccc4ccccc34)c2cc1C	6	-11	x	47	-5	1	-11	i
79	COc1cc(CNn2nnnc2N)ccc1OCC(=O)NC(C)(C)C	5	5	-6	-31	3	-5	-12	x
80	COC(=O)c1cc(NCc2c(F)cccc2Cl)ccc1N1CCOCC1	2	-2	-17	34	2	-10	1	i
81	O=C(NC(C(=O)O)c1ccccc1)c1ccc(S(=O)(=O)N2CCOCC2)cc1 (centres undefined)	1	6	-17	-24	-5	-8	-5	i
